HCMV NEC inh: cytomegalovirus nuclear egress complex inhibition; HTRF UL50-UL53 interaction, normalized percent inhibition; 190,000 compounds, 0.15% hits; inhibition, % (no concentration beside the values); AID 1918969;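 active means both replicates at 50% or more, plus weaker picks with an unusually low signal ratio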;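 further: stock transfer was 100 nL into about 20 µL; 0% = negative control wells and 100% = wells with untagged competitor protein; inactives centre near -12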
GIV Gai3 FP: blocks GIV peptide binding to rat Galpha-i3. P08753. Galpha-i3/FITC-GIV peptide fluorescence polarization, 90 min; hits give low values; scaled: aluminum fluoride 0%, vehicle 100%. percent of control (FP), % (test concentration not listed). 210,000 compounds, 0.42% hits. AID 1224905;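 active means replicate mean at 85% of control or lower, very high polarization wells dropped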;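 further: wells of about 15 µL received 100 nL stock; the first replicate is given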
Target sequence (P08753 whole entry, looked up): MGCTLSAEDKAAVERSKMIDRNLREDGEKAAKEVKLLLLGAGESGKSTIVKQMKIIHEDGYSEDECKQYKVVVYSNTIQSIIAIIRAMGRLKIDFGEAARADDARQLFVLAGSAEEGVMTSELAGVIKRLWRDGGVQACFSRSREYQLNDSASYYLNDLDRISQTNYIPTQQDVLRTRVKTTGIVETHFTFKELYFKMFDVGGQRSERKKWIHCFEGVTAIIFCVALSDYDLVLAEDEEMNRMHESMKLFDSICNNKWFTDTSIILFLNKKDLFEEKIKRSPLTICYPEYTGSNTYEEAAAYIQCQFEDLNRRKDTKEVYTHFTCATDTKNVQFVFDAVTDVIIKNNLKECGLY
Sa growth inh: blocks Staphylococcus aureus growth. relative growth, % (concentration not given with the values). AID 720641. 170,000 compounds, 0.53% hits. S. aureus RN4220 growth, OD600, 20 h, 42 °C; hits give low values;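 active means growth at 42 °C up to 50% and 20 or more points under that at 30 °C, or under 10% at both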;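 further: 300 nL library stock went into each well; scaled to the means of positive and negative controls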
Sa growth inh second temp: also measured in Sa growth inh; calls as there; relative growth, %; measured here: growth at 30 °C;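 optical density after 20 h as mean of two plates; 100% = untreated growth and lower means inhibition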
* marks the source's active call; other numbers are inactive results.

What do the screens show for `CNC(=O)c1ccc(-c2nc(CN3CCN(C(=O)Nc4cccc(OC)c4)CC3)c(C)o2)cc1`?
HCMV NEC inh: -12; GIV Gai3 FP: 106

What do the screens show for `O=C(CCc1nc2sc3c(c2c(=O)[nH]1)CCCC3)N1CCN(c2cccc(Cl)c2)CC1`?
HCMV NEC inh: -23; GIV Gai3 FP: 100

How did C#CCn1c(O)c(N=NC(=O)c2ccncc2)c2cc(Br)ccc21 do in these assays?
HCMV NEC inh: -16; GIV Gai3 FP: 92; Sa growth inh: 106; Sa growth inh second temp: 56

How did CC(C)CCNC(=O)CN1C(=O)CSc2ccc(S(=O)(=O)N3CCCCC3)cc21 do in these assays?
GIV Gai3 FP: 96; Sa growth inh: 97; Sa growth inh second temp: 90

How did CCc1ccc(N2C(=O)CN(Cc3ccccc3)C2=S)cc1 do in these assays?
GIV Gai3 FP: 103; Sa growth inh: 105; Sa growth inh second temp: 87

What do the screens show for `CCc1nc2sc3c(c2c(=O)o1)CCCC3`?
HCMV NEC inh: -14; GIV Gai3 FP: 107

What do the screens show for `CC(C)Cn1c(=O)c2sccc2n2c(=O)[nH]nc12`?
HCMV NEC inh: -27; GIV Gai3 FP: 102

Results for CC1(C)OC(=O)C(=Cc2cc3ccccc3o2)C(=O)O1 ?
HCMV NEC inh: -2; GIV Gai3 FP: 99; Sa growth inh: 88; Sa growth inh second temp: 50

Results for Cc1c(CC2C(=O)N(C)c3ccccc32)oc2ccc(F)cc12 (stereo not drawn) ?
HCMV NEC inh: -18; GIV Gai3 FP: 104

How did CCC(C)(C)NC(=O)COc1ccc2c(C)cc(=O)oc2c1 do in these assays?
HCMV NEC inh: -23; Sa growth inh: 92; Sa growth inh second temp: 75

Results for COc1ccc(C2=NN(S(=O)(=O)c3ccccc3)C(c3ccc(C)cc3)C2)cc1OC (stereo not drawn) ?
HCMV NEC inh: 0; GIV Gai3 FP: 110

What do the screens show for `COc1ccc(Cl)cc1S(=O)(=O)N1CCN=C1c1ccccc1`?
HCMV NEC inh: -2; GIV Gai3 FP: 102; Sa growth inh: 103; Sa growth inh second temp: 99

Retrieved one by one from the list above:
What do the screens show for `COc1ccc(Cl)cc1S(=O)(=O)N1CCN=C1c1ccccc1`?
HCMV NEC inh: -2; GIV Gai3 FP: 102; Sa growth inh: 103; Sa growth inh second temp: 99

What do the screens show for `O=C(CCc1nc2sc3c(c2c(=O)[nH]1)CCCC3)N1CCN(c2cccc(Cl)c2)CC1`?
HCMV NEC inh: -23; GIV Gai3 FP: 100

Results for COc1ccc(C2=NN(S(=O)(=O)c3ccccc3)C(c3ccc(C)cc3)C2)cc1OC (stereo not drawn) ?
HCMV NEC inh: 0; GIV Gai3 FP: 110

What do the screens show for `CNC(=O)c1ccc(-c2nc(CN3CCN(C(=O)Nc4cccc(OC)c4)CC3)c(C)o2)cc1`?
HCMV NEC inh: -12; GIV Gai3 FP: 106

Ordered by molecular weight (rising): part of the list above
How did CCc1ccc(N2C(=O)CN(Cc3ccccc3)C2=S)cc1 do in these assays?
GIV Gai3 FP: 103; Sa growth inh: 105; Sa growth inh second temp: 87

What do the screens show for `COc1ccc(Cl)cc1S(=O)(=O)N1CCN=C1c1ccccc1`?
HCMV NEC inh: -2; GIV Gai3 FP: 102; Sa growth inh: 103; Sa growth inh second temp: 99

What do the screens show for `O=C(CCc1nc2sc3c(c2c(=O)[nH]1)CCCC3)N1CCN(c2cccc(Cl)c2)CC1`?
HCMV NEC inh: -23; GIV Gai3 FP: 100

What do the screens show for `CNC(=O)c1ccc(-c2nc(CN3CCN(C(=O)Nc4cccc(OC)c4)CC3)c(C)o2)cc1`?
HCMV NEC inh: -12; GIV Gai3 FP: 106

More results follow:
Results for O=C(COc1ccc2oc(-c3ccco3)cc(=O)c2c1)OC1CCCCC1 ?
HCMV NEC inh: -49; GIV Gai3 FP: 110; Sa growth inh: 106; Sa growth inh second temp: 98

What do the screens show for `Cc1ccc(S(=O)(=O)Cc2ccc(C(=O)N3CCN(c4cccc(C)c4C)CC3)o2)cc1`?
GIV Gai3 FP: 105; Sa growth inh: 102; Sa growth inh second temp: 90

What do the screens show for `Cc1c(Cl)cccc1NC(=O)C1CCN(c2ncnc3c2nc2n3CCCCC2)CC1`?
GIV Gai3 FP: 107; Sa growth inh: 76; Sa growth inh second temp: 88

Results for CCOc1ccc(C2c3c(oc4ccccc4c3=O)C(=O)N2CCCN2CCOCC2)cc1 (stereo not drawn) ?
HCMV NEC inh: 4; GIV Gai3 FP: 101; Sa growth inh: 96; Sa growth inh second temp: 93

How did COc1cc(Cl)c(C)cc1NC(=O)c1nn(-c2ccc(C)cc2)c(=O)n(C)c1=O do in these assays?
GIV Gai3 FP: 97; Sa growth inh: 101; Sa growth inh second temp: 93

How did CCCOc1c(OC)cccc1C1CC(=O)Nc2c1c(C)nn2-c1ccc2nncn2n1 (stereo not drawn) do in these assays?
HCMV NEC inh: -38; GIV Gai3 FP: 101

Results for Cn1ccnc1C(=O)Oc1ccccc1F ?
HCMV NEC inh: -6; Sa growth inh: 83; Sa growth inh second temp: 85

What do the screens show for `O=C(NCCN1CCOCC1)c1ccc2c(c1)OCCO2`?
HCMV NEC inh: 8; GIV Gai3 FP: 99; Sa growth inh: 74; Sa growth inh second temp: 87

Results for COc1ccc(NC(=O)Nc2ccc(C(=O)N3CCOCC3)cc2)cc1OC ?
HCMV NEC inh: 7; GIV Gai3 FP: 108; Sa growth inh: 100; Sa growth inh second temp: 103

What do the screens show for `CCOC(=O)COc1nc(C)c(Br)c(OC)n1`?
HCMV NEC inh: -43; GIV Gai3 FP: 99; Sa growth inh: 103; Sa growth inh second temp: 96

Results for COc1cccc(NC(=O)c2sc3nc4n(c(=O)c3c2C)CCC4)c1 ?
HCMV NEC inh: -28; GIV Gai3 FP: 98; Sa growth inh: 99; Sa growth inh second temp: 81

How did CS(=O)(=O)N(CC(=O)N1CCCCC1)Cc1ccccc1 do in these assays?
HCMV NEC inh: -18; GIV Gai3 FP: 106; Sa growth inh: 101; Sa growth inh second temp: 73

How did Cc1ccc(S(=O)(=O)CCSc2n[nH]c(=O)n2-c2ccccc2)cc1 do in these assays?
HCMV NEC inh: -16; GIV Gai3 FP: 108; Sa growth inh: 92; Sa growth inh second temp: 80

What do the screens show for `CC(C)(C)C(=O)CSc1nc2ccccc2[nH]1`?
HCMV NEC inh: -7; GIV Gai3 FP: 99; Sa growth inh: 105; Sa growth inh second temp: 84

How did CCOc1ccc(-c2nnc(Nc3ccc(S(N)(=O)=O)cc3)c3ccccc23)cc1 do in these assays?
HCMV NEC inh: -62; GIV Gai3 FP: 107; Sa growth inh: 107; Sa growth inh second temp: 89

What do the screens show for `COc1ccc(/C=N/NC(=O)c2ccoc2C)cc1CN1CCN(c2ccc(F)cc2)CC1`?
HCMV NEC inh: -33; GIV Gai3 FP: 105; Sa growth inh: 108; Sa growth inh second temp: 59

What do the screens show for `COc1cc2c(cc1OC)-c1nnnn1C(C)(C)C2`?
HCMV NEC inh: -12; GIV Gai3 FP: 113; Sa growth inh: 94; Sa growth inh second temp: 91

Results for COc1ccc(CCN2CC(O)=C(c3nc4ccccc4s3)C2=N)cc1OC ?
HCMV NEC inh: -22; Sa growth inh: 94; Sa growth inh second temp: 84

How did O=C1C2C3C=CC(CC3)C2C(=O)N1c1cc(C(F)(F)F)ccc1Cl (stereo not drawn) do in these assays?
HCMV NEC inh: -22; GIV Gai3 FP: 103

What do the screens show for `Cc1ccc2c(c1)C(Cc1ccc(C(C)C)cc1)C(=O)N2` (stereo not drawn)?
HCMV NEC inh: -2; GIV Gai3 FP: 106

What do the screens show for `O=C(NCCCN1CCN(c2ccccc2F)CC1)c1ccc2nc(N3CCCCC3)sc2c1`?
HCMV NEC inh: -17; GIV Gai3 FP: 98; Sa growth inh: 107; Sa growth inh second temp: 82

Results for CCCCc1c(O)nc2n(c1=O)CCCS2 ?
HCMV NEC inh: -6; GIV Gai3 FP: 94; Sa growth inh: 80; Sa growth inh second temp: 76

What do the screens show for `COC(=O)c1ccccc1N=Nc1c(N)[nH]n(-c2ccccc2)c1=O`?
HCMV NEC inh: -9; GIV Gai3 FP: 108; Sa growth inh: 104; Sa growth inh second temp: 88

How did CC(CCO)Nc1nc2c(c(=O)n(C)c(=O)n2C)n1Cc1ccc(Br)cc1 (stereo not drawn) do in these assays?
HCMV NEC inh: -3; GIV Gai3 FP: 107; Sa growth inh: 103; Sa growth inh second temp: 100

Results for COc1ccc(NC(=O)CSc2nc3ccccc3n3c(C)nnc23)cc1 ?
HCMV NEC inh: -29; GIV Gai3 FP: 135

Results for COc1ccc(OC)c(CNC(=O)Nc2cn(CC(C)C)c(=O)c3ccccc23)c1 ?
GIV Gai3 FP: 101; Sa growth inh: 80; Sa growth inh second temp: 86

What do the screens show for `CC(=O)N1CCN(c2ccc(Nc3c4c(nc5nc(-c6ccccc6)nn35)CCCC4)cc2Cl)CC1`?
HCMV NEC inh: 12; GIV Gai3 FP: 100

What do the screens show for `Clc1ccc(OCc2nc(CSc3cccs3)no2)c(Cl)c1`?
GIV Gai3 FP: 104; Sa growth inh: 112; Sa growth inh second temp: 81

How did O=C1/C(=N/NC(=O)C2CC2)c2cccc3cccc1c23 do in these assays?
HCMV NEC inh: -111; Sa growth inh: 64; Sa growth inh second temp: 73

How did CCOC(=O)N1CCC(NC(=O)C2CCCCN2S(=O)(=O)c2ccc(F)cc2)CC1 (stereo not drawn) do in these assays?
GIV Gai3 FP: 108; Sa growth inh: 94; Sa growth inh second temp: 82

Results for O=C(c1cc(F)cc(F)c1)N1CCC(c2nc3c(nnn3Cc3ccccc3F)c(=O)[nH]2)CC1 ?
HCMV NEC inh: -13; GIV Gai3 FP: 102

How did CCn1cc(CCC(=O)NCc2ccc(C)cc2)c2ccccc21 do in these assays?
GIV Gai3 FP: 106; Sa growth inh: 103; Sa growth inh second temp: 90

Results for O=C(CC1Nc2ccccc2NC1=O)Nc1ccccc1NC(=O)CC1Nc2ccccc2NC1=O (stereo not drawn) ?
HCMV NEC inh: -5; GIV Gai3 FP: 107; Sa growth inh: 93; Sa growth inh second temp: 91

How did Cc1ccc(S(=O)(=O)N2CCN(C(=O)CSc3nnc(Cc4csc(C)n4)o3)CC2)cc1 do in these assays?
HCMV NEC inh: -14; Sa growth inh: 108; Sa growth inh second temp: 92

What do the screens show for `CCCSc1nc2sc3c(c2c(=O)n1-c1cccc(Br)c1)CC(C)(C)OC3`?
HCMV NEC inh: -2; GIV Gai3 FP: 106; Sa growth inh: 104; Sa growth inh second temp: 97

How did Cn1c(=O)c(=O)n(C)c2cc(S(=O)(=O)CCC(=O)NCc3ccccc3Cl)ccc21 do in these assays?
HCMV NEC inh: 0; GIV Gai3 FP: 102; Sa growth inh: 110; Sa growth inh second temp: 90

Results for C[C@@]12CCC3[C@@H]4CCC[C@@](C)(C(=O)O)[C@H]4CC[C@]3(C/C1=N/O)C2 (stereo partly drawn) ?
HCMV NEC inh: -29; GIV Gai3 FP: 108; Sa growth inh: 96; Sa growth inh second temp: 78

What do the screens show for `COC(=O)c1sccc1NC(=S)N(C)CCC#N`?
GIV Gai3 FP: 111; Sa growth inh: 86; Sa growth inh second temp: 89

How did Cc1cccc(CCNC(=O)c2nn(C)c3c2CSc2ccccc2-3)c1 do in these assays?
HCMV NEC inh: -9; GIV Gai3 FP: 103; Sa growth inh: 88; Sa growth inh second temp: 88

How did COc1ccc(/C=C(\C#N)C(=O)Nc2nc(OC)cc(OC)n2)cc1 do in these assays?
HCMV NEC inh: -72; Sa growth inh: 95; Sa growth inh second temp: 87

Results for CC(N=CC1=C(O)CC(C)(C)CC1=O)c1ccccc1 (stereo not drawn) ?
HCMV NEC inh: -13; GIV Gai3 FP: 102; Sa growth inh: 108; Sa growth inh second temp: 113

What do the screens show for `CS(=O)(=O)N(c1cccc(C#N)c1)S(C)(=O)=O`?
GIV Gai3 FP: 97; Sa growth inh: 99; Sa growth inh second temp: 83

Results for COc1ccc(-c2nnc(-c3ccc(S(=O)(=O)c4ccccc4)cc3)o2)cc1OC ?
HCMV NEC inh: -1; Sa growth inh: 85; Sa growth inh second temp: 106

How did COc1ccnc2c1c(=O)n(CC(=O)Nc1ccc3c(c1)OCO3)c(=O)n2C do in these assays?
HCMV NEC inh: 8; GIV Gai3 FP: 103

Results for O=C(c1cccc(CN2CCN(c3nc(-c4ccccc4)ns3)CC2)c1)N1CCC(O)CC1 ?
HCMV NEC inh: -29; GIV Gai3 FP: 97; Sa growth inh: 95; Sa growth inh second temp: 85

What do the screens show for `Cc1ccc(Oc2ccccc2)c(NC(=O)c2ccccc2)c1`?
GIV Gai3 FP: 102; Sa growth inh: 95; Sa growth inh second temp: 72

Results for CC1Cc2ccccc2N1C(=O)CC(=O)N1c2ccccc2CC1C (stereo not drawn) ?
HCMV NEC inh: -13; Sa growth inh: 113; Sa growth inh second temp: 88

What do the screens show for `COCCCn1c(-c2cc3ccccc3o2)csc1=Nc1ccccc1F`?
HCMV NEC inh: 1; Sa growth inh: 71; Sa growth inh second temp: 84

How did O=C(Nc1ccccc1)N1CCN(c2ccc(F)cc2)CC1 do in these assays?
HCMV NEC inh: 6; GIV Gai3 FP: 107; Sa growth inh: 106; Sa growth inh second temp: 82

What do the screens show for `CSc1ccc(C(N)=O)s1`?
HCMV NEC inh: -11; GIV Gai3 FP: 98; Sa growth inh: 105; Sa growth inh second temp: 109

How did Cc1cc(C(=O)CSc2ncnc3sc4c(c23)CCCC4)c(C)n1Cc1ccco1 do in these assays?
GIV Gai3 FP: 108; Sa growth inh: 86; Sa growth inh second temp: 92
